PKD1 inh = blocks activity of human protein kinase D1 | PKD1 kinase fluorescence polarization assay | inhibition, %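 (about 10 µM by stock and volumes)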 | 200,000 tested, 0.056% active | AID 797;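 active = inhibition of 50% or more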;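 also: controls were vehicle for no effect and a reference inhibitor for full effect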
Insulin prom inh = TRM-6 insulin promoter activity inhibition; TRM-6 cells (human fetal islet line), insulin promoter-eGFP reporter, imaging; reporter expression induced with tamoxifen; inhibition, % at 2 µM; 130,000 tested, 0.9% active;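 active = inhibition above the mean plus 3 SD, with well images judged a real hit on visual review, cut at about 60% in these data, passing the limit was not always enough; inconclusive = inhibition over the cutoff but images rejected on review; inactive = inhibition not above the cutoff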
RGS16-Gao = regulators of human RGS16-Galphao interaction; O15492+P09471; bead-based flow cytometry RGS16-Galphao binding, fluorescence; actives lie on both sides; binding response (% of control), % at 10 µM; 220,000 tested, 0.38% active; AID 1441;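 active = below 25% or above 175%, edge rows of some plates excepted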;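 also: Galphao activated by GDP with aluminum fluoride before binding; 100% = wells without compound and 0% = beads without RGS; some results beyond the cut were filed as inactive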
Target sequence (O15492 whole entry, looked up): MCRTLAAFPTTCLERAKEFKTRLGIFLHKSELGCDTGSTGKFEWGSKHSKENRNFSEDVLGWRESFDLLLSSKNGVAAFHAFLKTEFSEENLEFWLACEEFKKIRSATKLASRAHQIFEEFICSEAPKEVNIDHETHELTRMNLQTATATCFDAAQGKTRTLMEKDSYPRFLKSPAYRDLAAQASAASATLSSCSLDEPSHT
Target sequence (P09471 whole entry, looked up): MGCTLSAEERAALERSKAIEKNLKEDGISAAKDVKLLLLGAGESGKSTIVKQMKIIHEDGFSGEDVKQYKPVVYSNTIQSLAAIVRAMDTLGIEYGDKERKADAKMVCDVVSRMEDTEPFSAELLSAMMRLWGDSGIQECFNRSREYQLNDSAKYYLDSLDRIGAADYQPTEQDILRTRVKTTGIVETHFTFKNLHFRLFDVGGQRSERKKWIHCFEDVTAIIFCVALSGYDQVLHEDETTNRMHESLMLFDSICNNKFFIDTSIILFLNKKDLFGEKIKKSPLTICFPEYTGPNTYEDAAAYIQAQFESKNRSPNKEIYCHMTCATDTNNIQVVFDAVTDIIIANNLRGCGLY
GALR2 agonist = activates the human galanin receptor 2; O43603; GALR2-expressing cells, agonist activation read-out; activation, %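 (tested at 5 µM)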; 140,000 tested, 0.48% active;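 active = above mean plus 3 SD of all compounds, about 5% in these data, not always enough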;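 also: 0% = vehicle buffer wells and 100% = reference agonist at full effect; tested in CHO reporter cells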
Target sequence (O43603 whole entry, looked up): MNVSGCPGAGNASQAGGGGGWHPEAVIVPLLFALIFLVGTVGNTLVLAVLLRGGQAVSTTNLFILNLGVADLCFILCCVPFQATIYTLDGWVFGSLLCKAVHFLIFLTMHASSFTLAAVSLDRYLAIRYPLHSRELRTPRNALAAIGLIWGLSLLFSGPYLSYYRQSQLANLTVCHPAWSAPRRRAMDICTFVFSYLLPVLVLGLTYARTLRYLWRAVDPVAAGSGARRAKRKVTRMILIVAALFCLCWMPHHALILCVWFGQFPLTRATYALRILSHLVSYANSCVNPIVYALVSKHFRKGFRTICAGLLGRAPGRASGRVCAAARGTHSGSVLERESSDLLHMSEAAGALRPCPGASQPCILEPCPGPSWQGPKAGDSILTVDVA
HSV replic up = HSV replication enhancement; HSV replication augmentation in cells, fold increase; maximum fold increase; 220,000 tested, 0.005% active; AID 1956;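 active = peak rise of 1.5-fold or more in the series; inconclusive = self-fluorescent or not available for retest; tested in PC3 cells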;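 also: first round at 10 µM; read as green reporter fluorescence; hits show the peak of a series up to 25 µM; 1 = signal of infected wells without compound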
Insulin prom inh cell count = further read-out of Insulin prom inh, marked with its call; normalized cell count, %; measured here: cell count, toxicity; reference of the scale not given here;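 cells exposed to compound for 48 h; stained nuclei by imaging scaled within each plate; lower means fewer cells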
HSV replic up primary fold = further read-out of HSV replic up, marked with its call; fold increase; compound at 10 µM; measured here: primary screen fold increase 10 uM; tested in PC3 cells;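 GFP signal in the first replicate; 1 = infected wells without compound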
The depositor's hits bear a star; i = inactive; ? = inconclusive; / = not tested or not shown. An unsorted share of the library. Share with any hit: about 1.3%.

SMILES	PKD1 inh	Insulin prom inh	Insulin prom inh cell count	RGS16-Gao	GALR2 agonist	HSV replic up	HSV replic up primary fold
CC1=NN(c2nc(-c3ccccc3)cs2)C(=O)C1	-16	-30	76	90	0.2	?	/
COC(=O)c1cn(NC(=O)Cc2ccccc2OC)c(=O)c2ccccc12	0	/	/	103	/	i	0.99
CCCCc1nc2sc3c(c2c(=O)n1NC(=O)c1ccco1)CC(C)(C)OC3	/	/	/	104	/	i	0.83
COc1cc(OC)cc(C(=O)Nc2cccc(-c3ccc4nncn4n3)c2)c1	-1	/	/	103	/	i	0.84
O=c1c(-c2ccc([N+](=O)[O-])cc2)coc2c(O)c(O)ccc12	/	/	/	94	/	i	0.97
Cc1cc(C)n(Cc2ccccc2Cl)n1	-1	18	116	97	0.6	i	0.97
CCOC(=O)c1nn(-c2cccc(OC)c2)c2nc(Nc3ccccc3)cc(=O)n12	-11	-38	123	103	1.1	i	0.94
CC(C)n1c(SCC(=O)Nc2ccccc2N2CCCCC2)nc2c1c(=O)n(C)c(=O)n2C	-8	0	60	122	-0.5	i	0.89
O=C(CN1CCOc2ccccc21)NCc1ccco1	7	/	/	101	-2.7	i	0.98
O=C(c1ccc(OCC2CCCO2)cc1)N1CCc2ccccc2C1 (centres undefined)	-4	42	80	110	/	i	1.1
CCC(=O)Nc1cc(C(=O)OCC(=O)c2ccccc2)ccc1C	2	0	71	104	-0.5	i	1.1
Cc1ccc(/C=C2/N=C(c3ccccc3)NNC2=O)cc1	/	/	/	103	/	i	1.1
CCOc1ccc2nc(SC3CC(=O)N(c4ccccc4)C3=O)sc2c1 (centres undefined)	-3	/	/	100	-2.0	i	0.89
CCOc1ccc(C2CC(c3ccc(Br)cc3)Nc3nc(N)nn32)cc1 (centres undefined)	-2	45	168	/	-3.0	/	/
COc1cc2cc(CN(C(=O)Nc3ccccc3)C3CCCC3)c(=O)[nH]c2cc1OC	-15	-21	63	100	-2.5	i	0.95
CCCC(CCC)=NNc1ccc(S(=O)(=O)Nc2ccccc2OC)cc1[N+](=O)[O-]	3	31	127	100	-1.5	/	/
CCOc1ccc(NC(=O)N2CC=C(n3c(=O)[nH]c4ccccc43)CC2)cc1	-8	17	101	102	-1.2	i	1.1
CCOc1nc(C)ccc1-c1noc(-c2ccncc2)n1	-9	15	115	102	-0.9	i	0.96
O=C(NNc1ccccn1)C(=O)NNS(=O)(=O)c1ccc(Cl)cc1	2	32	99	101	-0.4	/	/
O=C(/C=C/c1cccs1)N1CCC2(CC1)Oc1ccc(F)cc1C(=O)C21CC(c2ccccc2)=NO1 (centres undefined)	/	/	/	98	/	i	1
OC(CNCc1cccc(Cl)c1)c1ccccc1 (centres undefined)	-7	/	/	96	/	i	0.91
CC(=O)Nc1ccc(NC(=O)Cn2cnc3c(nnn3Cc3ccc(F)cc3)c2=O)cc1	-2	0	123	98	/	i	1
Cc1cc(NC(=O)CSc2ccc3c(c2)OCCO3)no1	4	17	68	102	-0.1	i	0.91
CC(=O)C1=C(C)NC(SCC(=O)c2ccc(F)cc2)=C(C#N)C1c1ccco1 (centres undefined)	7	/	/	116	-0.4	i	0.98
C=C(C)C1Cc2c(C)nn(-c3ccccn3)c2C1 (centres undefined)	-7	63	135	107	-3.6	i	0.99
CC(C)C(=O)NNC(=O)c1csc(-c2cccs2)n1	/	/	/	96	/	i	0.93
O=C(Nc1cccnc1)c1cccc(S(=O)(=O)N2CCOCC2)c1	-5	47	85	104	-2.6	i	1
CCOC(=O)CCc1c(C)n[nH]c1C	-5	-27	85	102	/	i	0.9
COc1cc(/C=N/n2cnn(Cc3ccccc3Cl)c2=S)cc(OC)c1OC	-3	/	/	102	/	i	0.97
CNC(=O)c1csc(-c2ccccc2)n1	-12	47	98	93	-0.6	i	0.74
CCCNC(=O)c1nn2cc(Br)cnc2c1Cl	6	/	/	115	/	i	0.96
CCNC(=O)c1ccc(OCC(=O)Nc2ccc(F)cc2)c(OC)c1	-8	/	/	95	/	i	0.92
CCOC(=O)c1nnn(-c2ccc([N+](=O)[O-])cc2)c1C	2	0	53	116	/	i	1
CN1C(C(=O)NCc2ccco2)CC2Cn3c(nc4cc(Cl)c(Cl)cc43)C21 (centres undefined)	/	/	/	102	/	i	0.92
Cc1cc(N)n(-c2ccc(C(=O)O)cc2)n1	-1	/	/	82	/	i	1
CCOc1ccc(NC(=O)c2ccc(NC(=O)c3cn4c5c(c(N6CCN(C)CC6)c(F)cc5c3=O)OCC4C)cc2)cc1 (centres undefined)	4	-88	37	119	-2.2	i	0.88
COCC(=O)NC1CCN(CC(=O)Nc2ccc(OC)cc2[N+](=O)[O-])CC1	-14	17	128	119	-1.2	i	0.86
CCC(Sc1nc(=O)cc(N)n1-c1ccccc1)C(=O)Nc1cc(C)on1 (centres undefined)	0	-6	88	101	-0.9	i	0.96
O=C(c1cccc(F)c1)N1CCN(C(=O)c2cc3ncc(Br)cn3n2)CC1	-3	-13	114	102	-0.4	i	0.99
Cc1cc(-n2c(=O)c(C#N)cc3c(=O)n4cccc(C)c4nc32)no1	-2	7	105	101	19*	i	0.8
Clc1ccc(-c2nnc(C3CC3)o2)cc1	/	/	/	97	/	i	1
O=C(CC(Nc1ccc(F)cc1)C(=O)OCC(=O)c1cccs1)c1ccccc1 (centres undefined)	-3	/	/	98	-2.0	i	0.96
COc1cc(/C=C/C(=O)OCC(=O)NCC2CCCO2)ccc1OCC#N (centres undefined)	-8	33	92	116	-1.2	i	0.89
Clc1ccc(NNc2ccnc3cc(Cl)ccc23)cc1	0	-27	86	100	-3.4	i	0.71
C#CCN(CC=C)C(=O)CCc1nnc(COc2ccccc2)o1	0	/	/	105	/	i	1.1
OCCN1CCN(c2ncnc3ccc(Br)cc23)CC1	-5	/	/	104	-2.1	i	0.86
CCn1c(COc2ccccc2C)nnc1SCC(=O)CC(=O)Nc1ccccc1	-3	23	99	87	-1.0	i	0.87
Cc1csc2c(N3CCN(C(=O)Nc4ccc(OC(F)(F)F)cc4)CC3)ncnc12	/	/	/	110	/	i	1.2
O=C(c1cc2c(F)cccc2s1)N1CCCC1	-5	/	/	99	/	i	1
Cc1cnn(-c2ccc3nnc(-c4ccc(Cl)cc4)n3n2)c1	-10	-11	67	90	-1.1	i	0.8
O=C(Cc1cccs1)NCc1cccs1	-11	44	106	102	-2.5	i	1
COCCNC(=O)CN1C(=O)COc2ccc(Cl)cc21	-6	0	84	123	-1.9	/	/
Cc1ccnc(NC(=O)CSc2ccccn2)c1	/	/	/	94	/	i	0.99
O=C(CSc1nnc(-c2ccncc2)n1-c1ccc(F)cc1)NNC(=O)c1cccc(O)c1	3	14	147	89	-2.1	i	1
COc1ccc(C2CC(O)(C(C)(C)O)NO2)cc1 (centres undefined)	-9	-20	95	98	-1.9	i	0.87
COc1ccc(C2(O)CCN(CCCCOc3ccccc3)CC2)cc1	-10	/	/	102	-2.4	i	0.81
COc1cccc(F)c1C(=O)NC(=O)Nc1ccc2nc(C)oc2c1	/	/	/	78	/	i	1.3
O=C1CCCN1c1cccc(Br)c1	-2	56	159	123	-3.6	i	1.1
O=C(NCCc1ccccc1)C(=Cc1ccc(C(=O)O)cc1)C(=O)NCCc1ccccc1	0	-33	140	98	/	i	1.1
O=C1CC(C2CCCO2)C(=O)N1c1ccccc1 (centres undefined)	-7	-311	67	108	-2.0	i	0.92

(list continues)
SMILES	PKD1 inh	Insulin prom inh	Insulin prom inh cell count	RGS16-Gao	GALR2 agonist	HSV replic up	HSV replic up primary fold
O=c1cc2c(=O)oc3cc(O)c(O)oc3c2c(O)c1O	/	/	/	96	/	i	1.1
CCOC(=O)CS(=O)(=O)CC(=O)Nc1ccc([N+](=O)[O-])cc1OC	-6	/	/	102	/	i	1.1
COC(=O)c1ccccc1NC(=O)N1CCN(C/C=C/c2ccccc2)CC1	0	-21	142	102	-2.0	i	1
O=C(NCc1ccco1)c1cc(C(=O)C2CC2)c[nH]1	-14	57	117	99	-3.4	i	1.1
CC(=O)N(CCP(=O)(c1ccccc1)c1ccccc1)Cc1ccco1	13	/	/	111	-0.4	i	0.88
COc1ccc(C(=O)NCCNC(=O)c2cc(OCC(F)(F)F)ccc2OCC(F)(F)F)cc1	-3	-32	77	103	-1.3	i	1
O=C(O)C(NS(=O)(=O)c1ccc(F)cc1)c1ccccc1 (centres undefined)	7	6	93	100	/	i	0.99
CC(=O)Nc1cc(C(=O)N2CCOCC2)ccc1S(=O)(=O)c1ccc(C)cc1	-4	23	172	100	-2.3	i	0.96
CSC1=NC(C)N2C(SC)=NC(C)N12 (centres undefined)	/	/	/	103	/	i	1.1
O=C(O)COc1ccccc1C1C2C(=O)N(c3ccc(F)cc3)C(=O)C2ON1c1ccccc1 (centres undefined)	-7	/	/	98	-1.6	i	0.95
N#Cc1ccc(C(=O)Nc2cccc(NC(=O)c3ccco3)c2)c(F)c1	5	/	/	104	/	i	0.97
COc1ccc2c(c1OC)C(=O)N1N=C(c3ccccc3)CC21 (centres undefined)	-6	17	79	115	-1.1	i	0.89
CNC(=S)N(Cc1ccc(OC)cc1)C1CC(=O)N(c2ccc(Cl)cc2)C1=O (centres undefined)	-6	12	69	104	-1.0	/	/
CCc1nc(NCC2CCCN2CC)c2nnn(Cc3ccccc3F)c2n1 (centres undefined)	-1	-43	137	99	-1.1	i	0.82
Oc1ccccc1Oc1ncc(Br)c(N2CCOCC2)n1	-6	/	/	113	-2.6	i	1.1
COc1cc(S(=O)(=O)NC2CCCCC2)c(C)cc1C	-4	/	/	102	/	i	1.1
CC(=O)c1sc(-c2cccc(Cl)c2)nc1C	5	-15	112	99	/	i	1
CCc1nnc(NC(=O)CSc2nnc(-c3ccccc3OC)n2-c2ccccc2)s1	2	29	163	100	-1.5	i	0.95
Cc1cccc(OCC(=O)NN2C(=O)C3C4C=CC(O4)C3C2=O)c1 (centres undefined)	7	/	/	103	/	i	1.1
CCN(CC)S(=O)(=O)c1cccc(C(=O)NCc2ccccc2)c1	-3	/	/	103	/	i	0.9
O=C(CSCCO)Nc1cccc2ccccc12	-13	-19	112	103	-1.6	i	0.7
CC(C)OC(=O)CC(=O)CSc1nc2c(cc1C#N)CCCC2	-13	/	/	95	-1.2	i	0.89
c1ccc2c(c1)OCC(CNc1ncnc3sccc13)O2 (centres undefined)	-2	/	/	101	0.0	i	0.89
O=C(Nc1ccc(F)cc1)c1oc2ccccc2c1NC(=O)C1CCCC1	-5	-38	170	100	-2.4	i	0.89
Cc1ccc(N2CCN(CC(O)COc3ccc([N+](=O)[O-])cc3)CC2)cc1 (centres undefined)	-5	/	/	100	/	i	0.99
O=C(NNC(=O)c1ccccc1-n1cccc1)c1ccccc1	-5	-10	157	104	-2.4	i	0.88
COc1ccc(NC2=C(Cl)C(=O)N(CCc3ccccc3)C2=O)cc1	5	44	90	99	-2.7	i	0.83
CCCC(=O)Nc1ccc2oc(-c3ccc(OC)c(Br)c3)nc2c1	-4	4	150	101	1.2	i	0.61
CCSc1ncc(/C=N/Nc2ccc(F)cc2)n1C	11	/	/	98	-0.2	i	1
CN(C)S(=O)(=O)c1cccc(C(=O)OCC(=O)N2c3ccccc3NC(=O)C2(C)C)c1	-2	/	/	100	-1.6	i	1

Screening data (PubChem)
